# KCNQ2 enhance: KCNQ2 (rat) channel potentiation; CHO-K1 KCNQ2, FluxOR thallium flux fluorescence; active compounds read high; AID 2239; O88943; actives 0.54% (n = 310,000); B-score at 10 µM;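 active = fluorescence ratio B-score at least 3 SD of library B-scores, with initial fluorescence B-score within 3 SD, cut at about 5.3 in these data; same plate scores as AID 2156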;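 note: B-score of peak minus minimum over baseline fluorescence ratio after K+ and Tl+ stimulus; positive B-score means potentiation of KCNQ2 with more thallium influx and brighter signal; only the inactives scoring about 0 or higher are listed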
# Target sequence (O88943 whole entry, looked up): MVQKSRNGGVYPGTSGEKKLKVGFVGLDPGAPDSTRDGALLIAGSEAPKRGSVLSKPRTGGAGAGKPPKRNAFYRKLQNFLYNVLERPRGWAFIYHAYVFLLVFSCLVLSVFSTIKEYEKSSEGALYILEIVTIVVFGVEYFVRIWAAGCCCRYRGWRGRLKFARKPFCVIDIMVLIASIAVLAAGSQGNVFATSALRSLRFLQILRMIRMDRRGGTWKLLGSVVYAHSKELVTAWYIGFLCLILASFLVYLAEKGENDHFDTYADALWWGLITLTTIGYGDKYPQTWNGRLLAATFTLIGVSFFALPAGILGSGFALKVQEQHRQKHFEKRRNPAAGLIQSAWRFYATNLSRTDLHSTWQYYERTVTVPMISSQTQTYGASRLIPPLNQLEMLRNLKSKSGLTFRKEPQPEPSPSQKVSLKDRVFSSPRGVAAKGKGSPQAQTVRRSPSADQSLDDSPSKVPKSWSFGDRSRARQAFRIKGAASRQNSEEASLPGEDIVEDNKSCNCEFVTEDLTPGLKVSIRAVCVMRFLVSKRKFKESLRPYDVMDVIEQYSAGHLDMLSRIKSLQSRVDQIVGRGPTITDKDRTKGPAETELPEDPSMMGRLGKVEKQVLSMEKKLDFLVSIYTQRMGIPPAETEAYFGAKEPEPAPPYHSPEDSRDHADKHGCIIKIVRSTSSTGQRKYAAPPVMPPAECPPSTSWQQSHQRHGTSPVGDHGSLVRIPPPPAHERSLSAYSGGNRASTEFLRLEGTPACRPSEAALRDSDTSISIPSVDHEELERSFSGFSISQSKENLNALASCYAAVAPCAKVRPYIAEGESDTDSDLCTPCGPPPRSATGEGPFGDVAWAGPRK
# KCNQ2 enhance baseline: recorded beside KCNQ2 enhance, whose call it bears; B-score; compound at 10 µM; measured here: initial fluorescence intensity artifact check;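 brightness before thallium and not channel activity; 0 = typical well and far values either way flag optical interference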
# Active calls of the source: *.
SMILES,KCNQ2 enhance,KCNQ2 enhance baseline
O=C(NCC(c1ccco1)N1CCN(c2ccccc2)CC1)C(=O)NC1CCCCC1 (centres undefined),0.38,0.17
O=C(Nc1cccc(-n2cnnn2)c1)c1cccnc1,0.42,-0.21
COCC(=O)N1CCN(c2cccc(Cl)c2)CC1,1.66,-1.47
CC1Cc2nc(SCC(=O)Nc3ccc4c(c3)OCCO4)n(C)c(=O)c2S1 (centres undefined),2.13,0
COc1ccccc1N1CCN(C(=O)CCC(=O)O)CC1,1.74,-0.01
COC(=O)CSc1nnc(-c2ccc(OC)cc2OC)o1,0.33,-0.18
O=C(N/N=C\C=C\c1ccc(Br)cc1)c1ccc2c(c1)OCO2,0.28,0.75
N#Cc1cc2c(nc1SCC(=O)N1CCCCC1)CCCC2,2.38,-0.41
O=c1cc(-c2ccccc2)cc(-c2ccccc2)n1CCO,0.04,0.08
O=C(CC(c1ccccc1)c1cc(Br)ccc1O)NCCN1CCOCC1 (centres undefined),0.07,1.46
O=[N+]([O-])c1ccc(Cl)cc1Sc1cccc2cccnc12,0.07,0.01
CC(C)(C)N1C(=O)[C@H]2[C@@H](c3ccc(Br)cc3)N3C(=O)N(c4cccc(Br)c4)C(=O)[C@@]3(Cc3ccccc3)[C@H]2C1=O,0.32,0.98
C=CCNC(=S)NNC(=O)C(CCCC)CC(O)COCC(C)C (centres undefined),1.04,-0.04
Cc1ccc(Oc2cc(NC(=O)CCCn3nc(C)c([N+](=O)[O-])c3C)cc([N+](=O)[O-])c2)cc1,0.83,-1.51
S=C(NCC1CCCO1)N1CCN(c2nc(-c3ccccc3)cs2)CC1 (centres undefined),3.34,0.44
CCC(=O)NC(=S)Nc1ccc(OC)cc1OC,0.63,-1.08
O=C(O)c1ccc(N/N=C/c2ccc(C(F)(F)F)cc2)cc1,1.6,1.02
O=C(CSC1=NS(=O)(=O)c2cc(Cl)ccc2N1)c1ccc(Cl)cc1,1,-0.37
CCOC(=O)C1=C(C)Nc2nc(SC)nn2C1c1ccc(C(=O)OC)cc1 (centres undefined),1.02,-1.22
Cc1ccc(N(Cc2cc3cc(C)ccc3[nH]c2=O)C(=O)c2cccs2)cc1,0.64,0

# 5 entries from above, set out differently.
# Results follow in this order: KCNQ2 enhance, KCNQ2 enhance baseline
COC(=O)CSc1nnc(-c2ccc(OC)cc2OC)o1
 : 0.33, -0.18
N#Cc1cc2c(nc1SCC(=O)N1CCCCC1)CCCC2
 : 2.38, -0.41
O=C(NCC(c1ccco1)N1CCN(c2ccccc2)CC1)C(=O)NC1CCCCC1 (centres undefined)
 : 0.38, 0.17
CCC(=O)NC(=S)Nc1ccc(OC)cc1OC
 : 0.63, -1.08
Cc1ccc(Oc2cc(NC(=O)CCCn3nc(C)c([N+](=O)[O-])c3C)cc([N+](=O)[O-])c2)cc1
 : 0.83, -1.51

# The list continues:
SMILES,KCNQ2 enhance,KCNQ2 enhance baseline
CCn1c(SCC#N)nc2cc(S(=O)(=O)N3CCOCC3)ccc21,1.17,1.08
Cc1ccc(NC(=O)c2ccccc2NC(=O)c2cccs2)cc1,1.33,-0.58
Cc1nn(Cc2ccccc2Cl)c(C)c1NC(=O)c1nc2ncccn2n1,3.12,-0.18
O=S(=O)(Nc1cccc(-c2ccc3nncn3n2)c1)c1cccc(F)c1,0.17,-1.4
Cc1ccc(CN(C)CC(=O)Nc2cccc([N+](=O)[O-])c2)o1,1.61,-0.48
O=C(NC1CCCCC1)c1cccnc1C(=O)O,0.64,0.06
Cc1ccccc1C(=O)N1CCC(C(=O)NC2CCCCC2)CC1,0.51,-0.97
C/C(Cc1ccccc1)=N\NC(=O)CNC(=O)c1ccc(C(C)(C)C)cc1,0.55,-1.7
N[C@@H](Cc1ccccc1)C(=O)N1CCC(C(=O)NCC(=O)Nc2ccc(F)cc2)CC1,0.97,-1.07
O=C(CCC(=O)N1CCOc2ccc(Cl)cc21)NCCCN1CCN(c2ccccc2F)CC1,1.06,1.35
CC(=O)c1ccc(OCc2cccc(C(F)(F)F)c2)cc1O,1.66,-0.03
O=C(O)CN1C(=O)/C(=C\c2cc(Br)ccc2OCc2ccc(Cl)cc2Cl)SC1=S,2.64,-1.65
COc1ccc(S(=O)(=O)N(CC(=O)N2CCOCC2)c2cc(Cl)ccc2OC)cc1OC,0.98,-2.09
Cc1c(S(=O)(=O)c2ccccn2)c(N)n(Cc2ccccc2)c1C,0.73,-0.04
COc1ccccc1N1CCN(C(=O)CCCn2c(=O)[nH]c3ccsc3c2=O)CC1,0.55,-0.09
CCOc1ncccc1C(=O)N1CCN(c2ccc(C(F)(F)F)cn2)CC1,1.37,0.01
O=C(NCCC(=O)N1CCN(c2ccccc2F)CC1)c1ccco1,0.18,-1.05
Cc1ccccc1C1NC(=O)Cc2ccccc21 (centres undefined),0.31,-0.62
O=C(CCC(=O)N1CCN(S(=O)(=O)c2ccccc2)CC1)c1cccs1,2.64,-0.15
COc1cc(/C=C/C(=O)c2c(O)ccc3c(C)cc(=O)oc23)ccc1O,2.22,0.23

# Two entries drawn at random from those above, as already listed:
SMILES,KCNQ2 enhance,KCNQ2 enhance baseline
CCn1c(SCC#N)nc2cc(S(=O)(=O)N3CCOCC3)ccc21,1.17,1.08
Cc1ccccc1C1NC(=O)Cc2ccccc21 (centres undefined),0.31,-0.62

# Continued:
SMILES,KCNQ2 enhance,KCNQ2 enhance baseline
CSc1sc(C(=O)NN)c2c1C1(CCC2)SCCS1,0.58,-0.01
Cc1cc(C)cc(N2CC(C)(C)C2=O)c1,0.89,0.1
CCc1nnc(NC(=O)C2CCN(C(=O)NC3CCCCC3)CC2)s1,1.06,-0.59
Cc1cc(Nc2ccc(Cl)cc2)nc(-c2ccccc2O)n1,0.74,-2
Cc1ccc(NC(=O)c2cc3cccc([N+](=O)[O-])c3[nH]2)cc1,0.66,-1.14
COc1ccccc1NC(=O)CSc1nnc(CCNC(=O)c2ccc(C)cc2)n1C,1.34,0.19
O=C(Cc1cccc(C(F)(F)F)c1)NCc1cccnc1,0.49,1.63
CCOC(=O)c1cnc(-c2ccccc2)nc1Oc1ccc(OC)cc1,1.01,-0.01
Cc1nn(-c2ncc(C(F)(F)F)cc2Cl)c(=O)n1-c1ccccc1F,1.01,0.37
CN1CCN(CCC(=O)Nc2cccc(F)c2)CC1,0.13,1.23
CCCC(C)C(=O)Nc1ccc(F)c(Cl)c1 (centres undefined),3.34,-0.44
O=C(C(Cl)Cl)N1CCN(Cc2ccccc2)CC1,0.66,-0.22
CCCCCC(=O)NC(=S)NNC(=O)c1ccc([N+](=O)[O-])cc1,0.18,0.78
CCNc1nc(Oc2c(Cl)cccc2Cl)cc(C(F)(F)F)n1,0.04,-0.21
O=C(Nc1ccc2[nH]c(=S)sc2c1)Nc1ccccc1F,39.5*,-1.19*
CNS(=O)(=O)c1ccc2nc(NC(=O)/C=C/c3ccco3)sc2c1,0.13,0.27
CC(C)Cc1nnc(NC(=O)CSc2nc(N)cc(=O)[nH]2)s1,0.19,-0.03
COc1cc(C(=O)CCN2CCC(c3ccccc3)C2)cc(OC)c1OC (centres undefined),2.67,-1.08
O=C(CSc1nnc(-c2ccco2)n1Cc1ccco1)N1CCOCC1,2.15,-0.02
CC(=O)c1ccc(NC(=O)c2sc3nc(N4CCOCC4)c4c(c3c2N)CCCC4)cc1,0.87,-0.65
CC(C)C(=O)N1C2CCC1CC(O)(c1ccc(F)cc1)C2 (centres undefined),0.61,-0.06
Nc1nc(=S)[nH]c2c1C1(CCCCC1)Cc1ccccc1-2,0.83,0.46
CCN(CC)C(=O)c1sc(NC(=O)c2c(OC)cccc2OC)c(C#N)c1C,0.13,-0.49
CCc1nnc(NC(=O)CSc2nnc(-c3ccco3)n2CC)s1,1.98,-0.01
O=C(Cc1nc(-c2cnccn2)no1)NNC(=O)Nc1ccccc1,0.19,-1.31
O=C(Cn1cc(C(F)(F)F)ccc1=O)N/N=C/c1ccc(O)cc1,0.08,-1.09
CCC(C)[C@H](NC(=O)N1CC(=O)Nc2ccccc21)C(=O)N[C@@H](C(=O)O)c1ccccc1 (some centres undefined),0.05,-0.01
O=C(Cc1ccccc1)Nc1ccc2c(c1)CCC2,6.46*,-0.61*
COC(=O)C(CCSC)NC(=O)CNS(=O)(=O)c1ccc(F)cc1 (centres undefined),0.22,-0.86
Cn1c(-c2ccco2)nc2cc3ccccc3cc21,0.48,0.01
Cc1cccc(C)c1NC(=O)CN1C(=O)N(C)Cc2ccccc21,0.11,-0.19
Cc1ccc(NC(=O)Cn2nc(C)cc2C)cc1,1.31,0.04
Cc1cccc(NC(=S)NC(=O)/C=C/c2ccccc2)n1,1.43,-1.4
CC(C)(C)n1nnnc1C(c1ccc(F)cc1)N1CCC(C(N)=O)CC1 (centres undefined),0.49,0.89
CC(C)(C)c1cc(C(=O)N2CCN(c3ncccn3)CC2)ccn1,1.05,-0.29
CC1(C)CC(=O)C2=C(C1)Nc1ccccc1N1C(=O)c3ccccc3C21 (centres undefined),0.04,-1.66
CCCNC(=O)CN(c1cccc(F)c1)S(C)(=O)=O,0.22,-1.4
O=C(O)c1cccc(NC(=S)NCc2ccccc2)c1,1.85,0.56
CCCOc1ccc(N2C(=O)C3C4C=CC(CC4)C3C2=O)cc1 (centres undefined),1.38,0.05
COc1ccccc1C(=O)N1CC(=O)Nc2ccc(F)cc2C1c1ccccc1 (centres undefined),2.85,0.01

# Full records, quoted from the list. Order of values: KCNQ2 enhance	KCNQ2 enhance baseline
# Shown for `COc1ccccc1C(=O)N1CC(=O)Nc2ccc(F)cc2C1c1ccccc1` (centres undefined) = 2.85	0.01
# Shown for `CC1(C)CC(=O)C2=C(C1)Nc1ccccc1N1C(=O)c3ccccc3C21` (centres undefined) = 0.04	-1.66
# Shown for `CC(C)(C)n1nnnc1C(c1ccc(F)cc1)N1CCC(C(N)=O)CC1` (centres undefined) = 0.49	0.89
# Shown for `Cc1cccc(C)c1NC(=O)CN1C(=O)N(C)Cc2ccccc21` = 0.11	-0.19

# (next part)
SMILES,KCNQ2 enhance,KCNQ2 enhance baseline
Cc1ccc(NC(=O)Nc2nnc(Cc3ccc([N+](=O)[O-])cc3)s2)cc1,0.62,-0.73
CNC(=O)/C(C#N)=C/c1ccc(-c2ccccc2[N+](=O)[O-])o1,1.55,-0.24
COC(=O)c1cc(-c2ccc(Br)cc2)n[nH]1,0.36,0.26
NC(=O)C1CCN(C(=O)CNC(=O)c2ccccc2)CC1,1.96,0.05
O=C(NNC(=O)c1cc(Br)c(Br)s1)c1csc(N2CCOCC2)n1,2.32,0.28
O=C(/C=C/Nc1ccc(F)cc1F)c1ccc(Br)cc1,0.37,-0.06
O=C(CC12CC3CC(CC(C3)C1)C2)N/N=C\c1ccc[nH]1,0.85,-0.72
Cc1nn(C)c(C(=O)NNC(=S)NCc2ccco2)c1Br,0.96,0.2
CN(C)c1ccc(C(CNS(=O)(=O)c2cccc([N+](=O)[O-])c2)N2CCOCC2)cc1 (centres undefined),0.99,-0.88
O=C(CN1CCN(c2ccccc2F)CC1)Nc1ccc2c(c1)CCC2,0.01,-4.65
Cc1ccc(O)c(C(=O)CC(=O)c2ccc(Cl)cc2)c1,6.15*,-0.51*
Cc1nn(CCC(N)=O)c2nc(-c3cccs3)cc(C(F)(F)F)c12,0.08,1.29
CCOC(=O)C1CCN(Cc2nnnn2CCc2ccccc2)CC1,0.15,0
CCC1C(=O)NCCN1C(=O)c1cc(COc2cc(C)ccc2C)on1 (centres undefined),1.38,-0.15
O=C(Nc1cccc(NC(=O)c2sc3ccccc3c2Cl)c1)c1ccco1,0.41,-0.77
O=C(CCNS(=O)(=O)c1cccc2nsnc12)NC1CCCc2ccccc21 (centres undefined),0.33,-0.58
NS(=O)(=O)c1cccc(NC(=O)CSc2ncnc3ccccc23)c1,1.93,-1.52
COc1ccc(N2C(=O)CSC2c2ccc3c(c2)OCO3)cc1 (centres undefined),0.11,0.01
CCN(CC)S(=O)(=O)c1ccc(NC(=S)Nc2ccc(F)cc2)cc1,0.03,-0.94
C=CCNc1nc(Cl)nc(NC2CCCCC2)n1,1.95,-0.19
C=CCOC(=O)C1=C(C)NC(=S)NC1/C=C/c1ccccc1 (centres undefined),0.21,-1.04
CC(=O)Nc1nonc1C(=O)N1CCC(C)CC1,0.52,-0.71
CN(C)c1ccc(/C=C(\C#N)C(=O)Nc2nc3c(s2)CCN(Cc2ccccc2)C3)cc1,0.01,2.06
COc1cc2[nH]c(=O)n(CCC(=O)N3CCN(c4cc(Cl)ccc4C)CC3)c(=O)c2cc1OC,2.06,-0.93
COC(=O)CCCC1=CC2=CC(=O)C(C)(OC(=O)c3cccs3)C(=O)C2=CN1C1CCCC1 (centres undefined),0.01,1.01
O=C(NCCNC(=O)c1ccccc1F)c1ccccn1,0.45,0.29
CCCn1c(SCC(=O)Nc2ccccc2Oc2ccccc2)n[nH]c1=O,0.53,-0.41
CC1CCCc2sc3ncn(N)c(=N)c3c21 (centres undefined),0.32,2.32
COc1cc(C(=O)NNC(=O)CNC(=O)c2ccc(Br)o2)cc(OC)c1OC,0.59,1.12
CCc1ccccc1NC(=O)Nc1ccc(F)cc1,0.03,-0.32
Cn1ncc(SCc2ccccc2)c(Cl)c1=O,0.41,-1.43
CNC(=O)c1c(NC(=O)c2ccco2)sc(C)c1C,0.02,-0.03
O=C(NCc1cccc(F)c1)c1ccc(N2C(=O)Cn3c(cc4sccc43)C2=O)cc1,1.46,-3.87
O=C(CCc1ccccc1)N/N=C/c1cccc([N+](=O)[O-])c1,2.22,0.78
COC(=O)c1ccc(COc2ccc(C=O)cc2)o1,0.01,1.31
O=C(NCC(=O)N1CCN(c2ccccc2)CC1)c1ccccc1,0.89,1.21
O=C(O)CCCCCNc1nc(-c2ccccc2)nc2ccccc12,0.5,-0.14
Cc1ccc(C)c(NS(=O)(=O)c2ccc(OCC(=O)N3CCCC3)cc2)c1,0.84,0.36
CCOc1ccc(-c2cc(CCCC(=O)NCCC(C)C)no2)cc1,2.35,0.8
CCOC(=O)Nc1ccc(C)cc1Br,1.75,1.28

# Screens from PubChem BioAssay.

# Only part of the results is shown; the hit share may differ from the screen's.
